TRPML1 blocker = human mucolipin-1 channel inhibition | activity change, negative = inhibition, % (test concentration not listed) | TRPML1-inducible cells, Ca2+ dye fluorescence, FDSS; stronger effect = lower value; inhibition of EC80 agonist-evoked calcium signal | AID 624415 | Q9GZU1 | actives 0.02% (n = 390,000); in the data active means activity change below about -50%; inconclusive means about -30% to -50%; inactive means above about -30%;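 further: stimulus is agonist 54-4 at its EC80 concentration; on the % scale 0 is the no-effect control and ±100 the full control effect; compound concentration not given in the record; the text of the record puts the active cut at -80%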
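Calcium fluorescence in TRPML1-DL cells induced overnight with Tet: a 110 s read after compound pin addition, then a 110 s antagonist read after challenge with 54-4 at 4 uM final (EC80).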
D2 potentiator = positive allosteric modulators of human D2 dopamine receptor | P14416 | DiscoveRx D2 beta-arrestin cells, luminescence, 90 min; 100% = 57 uM dopamine signal | potentiation, % (no concentration beside the values) | actives 0.23% (n = 360,000) | AID 624464; active = potentiation of 50% or more; inconclusive = 30% to 50%; inactive = 30% or less;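 further: compound concentration not given in the record; tested on top of an EC20 dose of dopamine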
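PathHunter beta-arrestin assay in DiscoveRx D2 cells. Compounds were added with an EC20 of dopamine (50 nM final) for 90 min at 37 deg C. Luminescence was read 1 h after detection reagent, with 57 uM dopamine as the EC100 control.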
Six1-Eya2 inh = inhibitors of human Six1/Eya2 interaction | Q15475+O00167 | AlphaScreen GST-Six1/His-Eya2 binding, biochemical; stronger effect = lower value; control for the full effect not named in the record | activity change, % (concentration not given with the values) | actives 0.56% (n = 360,000); in the data active = activity change below about -65%; inconclusive = about -30% to -65%; inactive = above about -30%; further: on the % scale 0 is the no-effect control and ±100 the full control effect
Target sequence (O00167 whole entry, looked up): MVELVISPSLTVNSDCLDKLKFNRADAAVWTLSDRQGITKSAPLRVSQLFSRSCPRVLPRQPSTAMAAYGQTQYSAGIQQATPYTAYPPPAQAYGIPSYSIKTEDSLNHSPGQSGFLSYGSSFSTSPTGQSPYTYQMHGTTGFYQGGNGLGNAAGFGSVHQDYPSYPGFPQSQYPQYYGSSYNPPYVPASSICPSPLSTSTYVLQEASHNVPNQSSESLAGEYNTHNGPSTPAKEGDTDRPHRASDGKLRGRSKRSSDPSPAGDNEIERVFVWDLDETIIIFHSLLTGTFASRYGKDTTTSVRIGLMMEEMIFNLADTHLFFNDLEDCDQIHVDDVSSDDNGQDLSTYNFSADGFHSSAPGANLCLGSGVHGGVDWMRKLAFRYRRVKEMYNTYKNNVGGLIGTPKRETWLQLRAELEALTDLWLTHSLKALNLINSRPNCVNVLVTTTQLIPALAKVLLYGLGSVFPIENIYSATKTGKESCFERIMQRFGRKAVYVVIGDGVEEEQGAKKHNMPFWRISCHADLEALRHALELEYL
Target sequence (Q15475 whole entry, looked up): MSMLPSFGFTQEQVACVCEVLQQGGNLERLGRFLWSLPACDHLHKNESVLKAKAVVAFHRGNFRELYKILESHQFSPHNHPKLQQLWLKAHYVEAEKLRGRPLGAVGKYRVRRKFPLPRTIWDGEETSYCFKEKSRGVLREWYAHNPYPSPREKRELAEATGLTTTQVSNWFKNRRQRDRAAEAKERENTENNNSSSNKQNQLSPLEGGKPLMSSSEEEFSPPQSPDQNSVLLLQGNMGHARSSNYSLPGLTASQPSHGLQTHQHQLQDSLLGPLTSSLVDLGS
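AlphaScreen with GST-Six1 and His-Eya2 (5X mix: 250 nM and 500 nM), glutathione donor and nickel acceptor beads; buffer 50 mM Tris pH 8.0, 300 mM NaCl, 1 mM TCEP; 1 h at 37 C in the dark.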
TRPML1 ag = activates the human TRPML1 channel | TRPML1-expressing cells, Ca2+ dye fluorescence, FDSS; host cell line not named in the record; reference of the full effect not given here | activation, % (concentration not given with the values) | actives 0.12% (n = 410,000); in the data active = activation above about 50%; inconclusive = about 30% to 50%; inactive = below about 30%; further: 0% is about no effect; the text of the record puts the active cut at 80%
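Calcium fluorescence on an FDSS kinetic reader gave the read-out. Tet-induced TRPML1-DL cells were plated overnight, dye-loaded (Ca8 with quencher, 45-90 min, room temperature, dark), then read 110 s after compound addition, and again 110 s after 4uM final 54-4 (EC80).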
TRPV1 potentiator = potentiators of human vanilloid receptor 1 (TRPV1) | Q8NER1 | TRPV1-expressing cells, Fluo-8 calcium influx, capsaicin EC20 potentiation; host cell line not named in the record; control for the full effect not named in the record | potentiation, % at 8.33 µM | actives 0.02% (n = 320,000); active means potentiation above 80%; inconclusive means 30% to 80%; inactive means below 30%; further: 0% is about no effect
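Fluo-8 calcium influx in TRPV1-expressing cells, kinetic read (ex 480/em 520 nm). Compound added and read 3 min for agonist activity, followed by capsaicin at EC20 final and 2 min further read for enhancement.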
CtBP-E1A inh = CtBP/E1A binding inhibition. AID 651724. activity change, % (no concentration beside the values). actives 0.49% (n = 340,000). AlphaScreen GST-E1A/His-CtBP binding, 1536-well; stronger effect = lower value; control for the full effect not named in the record; in the data active means activity change below about -65%; inconclusive means about -30% to -65%; inactive means above about -30%; further: on the % scale 0 is the no-effect control and ±100 the full control effect; compound concentration not given in the record
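Protein mix (5X: 125 nM each GST-E1A, His-CtBP) was incubated with pinned compound 2 h at 37 deg C in dark, in 50 mM Tris pH 8.0 buffer with 300 mM NaCl. Glutathione donor and nickel acceptor beads followed; AlphaScreen signal read after 1 h.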
An asterisk follows results filed as active; u = inconclusive; x = not tested or not shown; & = joins results of further samples.

SMILES | TRPML1 blocker | D2 potentiator | Six1-Eya2 inh | TRPML1 ag | TRPV1 potentiator | CtBP-E1A inh
CC(Oc1cccc(F)c1)c1ccnc2nc(/N=C/N(C)C)nn12 (stereo not given) | -6 | 1 | 0 | 1.6 | -5 | x
Cc1cccc(S(=O)(=O)NNC(=O)c2sc(C)nc2C)c1 | -3 | -2 | 16 | 1.2 | 7 | 15
COC(C[C@H]1O[C@@H]1C(=O)COCc1ccccc1)OC | -17 | -4 | -4 | 0.6 | x | x
COC(=O)c1cc(NC(=O)CN2C(=O)CSC2=O)ccc1Cl | -4 | 11 | -1 | -0.7 | -10 | 2
COc1ccc(N(C(=O)Cn2nnc3ccccc32)C2(C(=O)NC3CCCC3)CCCCC2)cc1 | 2 | -15 | 0 | 0.6 | x | 5
COc1ccc(C2NC(=O)N(C)C3=C2C(=O)CC(C)(C)C3)cc1OC (stereo not given) | -13 | -6 | 0 | -0.1 | 8 | x
CCn1c(SCC(=O)NCc2ccccc2)nnc1-c1ccccc1O | 4 | -21 | 0 | -0.1 | 2 | 9
COC(=O)c1c(C)[nH]c(C(=O)C(C)OC(=O)C2CC(=O)N(c3ccc(C)cc3)C2)c1C (stereo not given) | -3 | 0 | -8 | 0.0 | -8 | -13
COc1ccccc1-c1cc(C(F)(F)F)nc(S(=O)(=O)CCCC(=O)Nc2cccnc2Cl)n1 | 15 | -7 | 6 | 1.6 | -14 | 0
Cc1noc(C)c1C(=O)Nc1ccccc1C(=O)NCCc1ccccc1 | -12 | -7 | 11 | 3.6 | -7 | 6
O=C(Nc1ccc2c(c1)CCC2)Nc1ccc2c(c1)OCO2 | -5 | -7 | -3 | 0.1 | -34 | x
Cc1nc2ccccn2c1C(=O)NN | 6 | 1 | 9 | 0.3 | -10 | 3
CCOP(=O)(OCC)C(NC(C)=O)C(=O)c1ccccc1 (stereo not given) | -8 | 1 | 7 | 0.3 | 0 | x
O=C(O)C1CCCN1c1ncccc1[N+](=O)[O-] (stereo not given) | 2 | -5 | 5 | -0.5 | 3 | x
Cc1nc([N+](=O)[O-])cn1CCC#N | -3 | -3 | 6 | 0.6 | 1 | 10
O=C(/C=C/c1ccc(Br)cc1)N1CCN(c2cccc(C(F)(F)F)c2)CC1 | 24 | -2 | -10 | 2.2 | 8 | -1
CCCCCCn1cc(CN(C)C2CN(Cc3cn(CCCCCC)nn3)S(=O)(=O)C2)nn1 (stereo not given) | x | x | 0 | -1.0 | x | -1
COc1ccc(-n2nc3cc(C)c(NC(=O)c4cccnc4)cc3n2)cc1 | -3 | -13 | 5 | 0.0 | -5 | 4
COC(=O)c1ccc(/C=N/Nc2nc(N3CCCCC3)nc(N3CCCCC3)n2)cc1 | -12 | 0 | 3 | -0.1 | 9 | -5
COc1ccc(OC)c(S(=O)(=O)N2CCc3ccccc3C2)c1 | 22 | -10 | 4 | 0.3 | -4 | x
Cc1ccc(-c2c(C#N)c(N)n3c(nc4ccccc43)c2C#N)cc1 | 7 | 2 | -3 | -1.2 | -10 | -8
CCOC(=O)[C@H]1[C@H]2COc3cc(OC)ccc3[C@@H]2N2C(=O)c3cc(F)ccc3NC(=O)[C@@]12C | -7 | -5 | -4 | -0.3 | 24 | 1
Cn1cccc1/C=C1\SC(=O)N(CC(=O)Nc2ccc(Cl)cc2)C1=O | 25 | 4 | 0 | -0.2 | x | -1
O=C1CCCC(O)=C1C=Nc1cccc(C(F)(F)F)c1 | 14 | 18 | 10 | 1.0 | -4 | x
Cc1ccc(-n2ncc3c(=O)[nH]c(SCC(=O)N4CCCCC4)nc32)cc1 | 1 | -4 | -5 | -1.2 | -6 | -1

(continued)
SMILES | TRPML1 blocker | D2 potentiator | Six1-Eya2 inh | TRPML1 ag | TRPV1 potentiator | CtBP-E1A inh
COCCCn1c2nc3ccccc3nc2c2c(=O)n(CC3CCCO3)cnc21 (stereo not given) | -4 | 7 | 9 | -0.3 | -16 | 5
O=C(Cc1ccc(Cl)cc1)Nc1ccc(-c2nnc(-c3ccco3)o2)cc1 | -15 | 18 | 0 | 0.6 | 1 | -5
CC(=O)c1cccc(S(=O)(=O)N2CCC(C(=O)OC3CCOC3=O)CC2)c1 (stereo not given) | -12 | 0 | -2 | 0.0 | -3 | 2
CCCCc1ccc(NC(=S)NCc2cccc(OC)c2)cc1 | 48 | -8 | -5 | 1.9 | -1 | 0
COC(=O)c1ccc(N2CCC(C)CC2)c(N)c1 | -7 | -1 | -1 | -0.4 | -19 | -10
Cc1cc(C)c2c(c1)OC(O)(C(F)F)CC2=O (stereo not given) | 9 | -3 | -1 | -0.4 | 4 | 7
CC(=O)c1ccc(NC(=O)CSc2nnc(Cc3cccn3C)n2-c2ccc(F)cc2)cc1 | -4 | 0 | -12 | 1.6 | -1 | -7
CN(CC(=O)Nc1cccc(F)c1)C(=O)CCCNC(=O)c1ccc(Cl)cc1 | -10 | -15 | 3 | 0.9 | -6 | -1
CC(C)(C)OC(=O)N1CCC[C@H]1C(=O)Nc1ccc(C#N)cc1 | 12 | -6 | -9 | 0.1 | -1 | 0
CC(C)CCN(Cc1ccco1)S(=O)(=O)c1csc(C(N)=O)c1 | -15 | -8 | -1 | -0.7 | -19 | -5
CCCc1cc(NCCCN(C)C)n2c(nc3ccccc32)c1C#N | 14 | -24 | 9 | 0.3 | 7 | x
NC(=O)C1CCN(C(=O)CN2C(=O)c3ccccc3S2(=O)=O)CC1 | -5 | -2 | 5 | 0.9 | -5 | 7
COc1ccc(NC(=O)CCc2nc3ccccc3s2)c(OC)c1 | -16 | -4 | -7 | -0.6 | -5 | -25
CCCC[C@@H]1Cc2[nH][nH]c(=O)c2[C@H](c2ccc3ccccc3c2)O1 | x | x | -2 | -0.6 | x | -7
c1ccc2c(c1)OCC(c1nn3cnnc3s1)O2 (stereo not given) | -14 | -11 | 0 | -0.3 | -7 | -10
CC1(c2nc3ccccc3[nH]2)CCCC2=Nc3ccccc3CN21 (stereo not given) | x | x | 2 | -0.6 | x | 1
Cc1cc(C(=O)NN=C2CCCC2)c2ccccc2n1 | 10 | 1 | -1 | 0.8 | 2 | 2
O=C(NC12CC3CC(CC(C3)C1)C2)N1CCN(S(=O)(=O)c2ccc(Cl)cc2)CC1 | -2 | -14 | -1 | 0.6 | -12 | -1
CN1CCN(C(=O)c2ccc(CSc3ccc(Cl)cc3)cc2)CC1 | 16 | -36 | -5 | 1.4 | -16 | -4
Nc1cc(C(F)(F)F)ccc1Nc1ccccc1 | 16 | 1 | 0 | -0.9 | -28 | x
O=C1c2ccccc2-c2c1c1ccccc1c(=O)n2CCO | 7 | -16 | -30 | 1.4 | x | u
Cc1ccc2c(c1)C(=O)C(=O)N2c1ccc(Cl)cc1 | u | -59 | 21 | 2.8 | x | 0
CCN(CC)S(=O)(=O)c1cccc(-c2nnc(SCC#N)n2Cc2ccccc2)c1 | -6 | 6 | -2 | 0.3 | -19 | -1
CCCCn1c(SCC(=O)NC(=O)NCc2ccco2)nc2cc(S(N)(=O)=O)ccc21 | 0 | -2 | -15 | -0.2 | 11 | 7
CCOC(=O)CNC(=O)c1ccc2[nH]c3c(c2c1)CCCC3 | 17 | 7 | -5 | -0.2 | -10 | 1

Shown in CSV form: three of the compounds above
canonical_smiles,TRPML1 blocker,D2 potentiator,Six1-Eya2 inh,TRPML1 ag,TRPV1 potentiator,CtBP-E1A inh
CC(=O)c1ccc(NC(=O)CSc2nnc(Cc3cccn3C)n2-c2ccc(F)cc2)cc1,-4,0,-12,1.6,-1,-7
CN(CC(=O)Nc1cccc(F)c1)C(=O)CCCNC(=O)c1ccc(Cl)cc1,-10,-15,3,0.9,-6,-1
CC(C)(C)OC(=O)N1CCC[C@H]1C(=O)Nc1ccc(C#N)cc1,12,-6,-9,0.1,-1,0

Later entries:
SMILES | TRPML1 blocker | D2 potentiator | Six1-Eya2 inh | TRPML1 ag | TRPV1 potentiator | CtBP-E1A inh
C/C=C(\C)CN1CCC(n2nccc2NC(=O)c2ccc(OC)cc2)CC1 | 4 | -22 | 1 | 0.0 | 1 | 3
Cc1ccc(C)c(OCc2nc(-c3cccnc3)no2)c1 | 14 | -7 | 16 | 2.3 | 4 | 27
Cc1ccccc1NC(=O)C(=O)NCCCN1CCCC1=O | 1 | 2 | 8 | 0.0 | 20 | -13
COc1ccccc1OCCNC(=O)c1ccc(C)c(S(=O)(=O)N2CCOCC2)c1 | -8 | -26 | 18 | 0.7 | 24 | 3
COc1cc2cc(CN(CCc3cccc(C)c3)C(=S)NCCCN3CCOCC3)c(=O)[nH]c2cc1OC | -3 | -11 | -9 | 0.4 | 5 | u
CCN(C[C@H]1N[C@@](C)(C(=O)OC)[C@H]2C(=O)N(C)C(=O)[C@@H]12)S(=O)(=O)c1ccc(F)cc1 | -4 | x | 3 | -0.4 | x | -7
COc1ccc(OCC(=O)Nc2ccc3c(c2)CCC3)cc1 | 3 | -6 | 2 | -0.1 | -23 | x
Cc1ccc(Cn2c(Cc3ccccc3)nc3ccccc32)cc1 | 30&29 | -19 | -2 | 2.3&3.5 | -6 | -1
O=C(COC(=O)CCCSc1nc2ccccc2[nH]1)Nc1ccc(Oc2ccccc2)cc1 | 44 | -4 | -5 | 4.6 | 9 | 0
COc1cc2c3nnc(-c4ccccc4)c-3cn(Cc3ccc(F)cc3)c2cc1OC | -6 | -13 | -1 | 2.4 | 8 | -1
O=C(NC(=S)NC(=O)c1ccccc1F)c1ccccc1F | 22 | -10 | 0 | -0.6 | -17 | 10
Cn1ccnc1SCC(=O)Nc1nc2ccccc2s1 | -22 | -7 | -11 | 0.6 | 1 | x
O=C(/C=C/c1ccccc1)N1CCC(c2ccccc2)C1 (stereo not given) | 20 | 2 | 3 | 2.8 | -8 | 2
COc1ccc2c(c1)c(C(=O)N/N=C/c1cccc(Br)c1)c(C)n2C | -3 | -20 | u | 1.0 | -1 | -7
COC(=O)C1C(O)=C(C=NCC(C)N=CC2=C(O)C(C(=O)OC)C(C)(C)CC2=O)C(=O)CC1(C)C (stereo not given) | 30 | 25 | 21 | -0.9 | 1 | 9
N#Cc1nc(Cc2ccccc2)oc1N1CCN(c2cccc(Cl)c2)CC1 | 3 | -7 | u | 0.1 | 14 | u
CCO[C@H]1OC(C(=O)N2CCN(Cc3ccccc3)CC2)=C[C@@H](c2coc3ccccc3c2=O)[C@@H]1CCCO | -14 | 19 | -3 | -1.0 | 9 | -1
CCCCn1c(SC(C)C(=O)c2ccc(OC)cc2)nc2cc(S(N)(=O)=O)ccc21 (stereo not given) | -14 | -12 | -4 | -0.6 | -13 | -5
Cc1nc2scc(-c3ccc(C(C)(C)C)cc3)c2c(=O)n1N | 22 | -1 | -3 | 2.0 | -8 | 5
O=C(CN1C(=O)NC2(CCCC2)C1=O)N1CCN(S(=O)(=O)c2ccc(Cl)cc2)CC1 | 7 | u | 4 | 2.6 | -20 | x

Arranged by count of non-hydrogen atoms (falling): 3 of the compounds above.
SMILES | TRPML1 blocker | D2 potentiator | Six1-Eya2 inh | TRPML1 ag | TRPV1 potentiator | CtBP-E1A inh
COc1cc2c3nnc(-c4ccccc4)c-3cn(Cc3ccc(F)cc3)c2cc1OC | -6 | -13 | -1 | 2.4 | 8 | -1
O=C(CN1C(=O)NC2(CCCC2)C1=O)N1CCN(S(=O)(=O)c2ccc(Cl)cc2)CC1 | 7 | u | 4 | 2.6 | -20 | x
O=C(/C=C/c1ccccc1)N1CCC(c2ccccc2)C1 (stereo not given) | 20 | 2 | 3 | 2.8 | -8 | 2

Screening data from PubChem BioAssay.
